Assay outcomes deposited in PubChem BioAssay by Vanderbilt University.
GIRK2 activ = activators of human GIRK2 potassium channels; calls only for hits at 25 µM; HEK293-GIRK2 thallium flux, Thallos fluorescence; actives 0.05% (n = 63,000);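 active = among the strongest 0.2% of first-round signals and kept after retests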;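 also: first round at about 10 µM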
Target sequence (P48051 whole entry, looked up): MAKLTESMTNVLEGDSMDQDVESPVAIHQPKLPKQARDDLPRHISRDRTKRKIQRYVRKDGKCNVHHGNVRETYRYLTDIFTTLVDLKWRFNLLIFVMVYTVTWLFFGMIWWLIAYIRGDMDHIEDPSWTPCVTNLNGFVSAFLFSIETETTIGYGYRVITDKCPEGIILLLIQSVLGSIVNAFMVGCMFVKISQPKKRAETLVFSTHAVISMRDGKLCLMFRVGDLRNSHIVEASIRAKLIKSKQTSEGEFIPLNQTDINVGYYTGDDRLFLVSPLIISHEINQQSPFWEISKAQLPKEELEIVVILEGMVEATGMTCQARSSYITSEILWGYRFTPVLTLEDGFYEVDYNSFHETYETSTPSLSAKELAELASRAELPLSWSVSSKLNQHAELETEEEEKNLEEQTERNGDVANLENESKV
Calls only; i = inactive; + = active, no number. These rows are one share of the data (hit frequency here may not be typical).

A first look (five entries):
canonical_smiles | GIRK2 activ
O=C(NCCc1c[nH]c2ccccc12)c1nnn(-c2ccccc2Cl)c1-c1ccccn1 | i
COC(=O)c1ccc(S(=O)(=O)Nc2ccc(CC(=O)N(C)C)cc2)cc1 | i
O=C(NCC1(c2cccs2)CC1)c1ccccn1 | i
COc1ccccc1CNC(=O)c1nnn(-c2ccc(C)cc2)c1-c1cccnc1 | i
COc1ccc(NC(=O)C2CCN(c3c(C#N)cnc4ccc(C)cc34)CC2)c(OC)c1 | i

The list itself, repeating the preview:
canonical_smiles | GIRK2 activ
O=C(NCCc1c[nH]c2ccccc12)c1nnn(-c2ccccc2Cl)c1-c1ccccn1 | i
COC(=O)c1ccc(S(=O)(=O)Nc2ccc(CC(=O)N(C)C)cc2)cc1 | i
O=C(NCC1(c2cccs2)CC1)c1ccccn1 | i
COc1ccccc1CNC(=O)c1nnn(-c2ccc(C)cc2)c1-c1cccnc1 | i
COc1ccc(NC(=O)C2CCN(c3c(C#N)cnc4ccc(C)cc34)CC2)c(OC)c1 | i
CNCC#Cc1c(F)ccc2c1/C(=C/c1[nH]ccc1OC)C(=O)N2 | i
Cc1cc(CNC(=O)CC(CC(=O)O)c2cccs2)c(C)o1 (centres undefined) | i
O=C(/C=C/c1ccccc1Cl)N1CCN(CCn2cccn2)CC1 | i
Cc1cc(NC(=O)C2CCN(C(=O)COc3ccccc3F)CC2)no1 | i
CC(C)C(NS(=O)(=O)c1ccccc1F)C(=O)O (centres undefined) | i
COc1ccc(Cl)cc1S(=O)(=O)NCCn1nc(-c2ccccc2)ccc1=O | i
Cc1cc(CCNC(=O)CNC(=O)c2ccccc2)on1 | i
CN(c1ccccc1)c1nnc(-c2ccc(NC(=O)c3ccc(F)cc3F)cc2)s1 | i
CCCCOc1ccccc1-c1cc(C(=O)NCc2ccccn2)[nH]n1 | i
CN(C)c1cccc(C(=O)NCC2CCN(Cc3cccs3)CC2)c1 | i
O[C@@H](c1cc(C(F)(F)F)nc2c(C(F)(F)F)cccc12)[C@H]1CCCCN1 | i
Cc1noc(-c2ccc(=O)n(Cc3nc(-c4ccccc4)oc3C)c2)n1 | i
Cc1cc(C)c(C)c(S(=O)(=O)NCC(=O)N2CC(C)OC(C)C2)c1C (centres undefined) | i
COc1cccc(-c2csc3c(=O)[nH]c(N4CCCC(C(=O)NC5CCC(C)CC5)C4)nc23)c1 (centres undefined) | i
CCC(C(=O)N1CCN(c2c(C)nn(C3CCS(=O)(=O)C3)c2C)CC1)c1ccccc1 (centres undefined) | i
CCSc1nnc(NC(=O)CN2CCC(c3nnc(C(C)C)o3)CC2)s1 | i
COc1ccc(C2c3cccn3CCN2S(=O)(=O)c2ccc(Br)cc2)cc1 (centres undefined) | i
Cc1noc(C)c1S(=O)(=O)N1CC(c2nc(-c3ccccc3)no2)C1 | i
Cc1cc(C)n(CCNS(=O)(=O)c2ccccc2)n1 | i
O=C(CNC(=O)Cn1c(=O)[nH]c2ccsc2c1=O)NCc1ccccc1C(F)(F)F | i
COC(=O)c1sccc1S(=O)(=O)N(Cc1ccoc1)Cc1cccs1 | i
O=C1CCc2cc(S(=O)(=O)N3CCCCC3)cc3c2N1CC3 | i
COc1ccc(Cn2c(CO)cnc2SCc2ccccc2C)cc1 | i
CCCCCNC(=O)c1cn(-c2ccc(C)c(C)c2)nn1 | i
COCCN1CCC(CNC(=O)NC2CCCCC2)CC1 | i
COc1ccc(CCC(=O)NCC2CC(=O)N(c3ccccc3)C2)cc1 (centres undefined) | i
COc1cccc(CNC(=O)CCCn2c(=S)[nH]c3cc4c(cc3c2=O)OCO4)c1 | i
CN1CCN(c2oc(-c3ccc(S(=O)(=O)N4CCCC4)cc3)nc2C#N)CC1 | i
O=C(c1ccco1)N1CCCC(c2nnc(Cc3ccccc3)s2)C1 (centres undefined) | i
CSc1ncc(Cl)c(C(=O)Nc2ccccc2C(=O)O)n1 | i
CCCn1c(=O)c2c(nc3n2CCCN3c2cccc(C)c2C)n(C)c1=O | i
O=C(COc1ccc(F)cc1)NCC1(CO)CC1 | i
Oc1c(Cl)cc(Cl)c2cccnc12 | i
COc1ccc(C2NC(=S)NC(C)=C2C(=O)Nc2ccc(Br)cc2)cc1 (centres undefined) | i
COc1cccc(-n2c(C)c(C)n3c4c(=O)n(CC(C)=O)c(=O)n(C)c4nc23)c1 | i
Cc1ccc(Cn2c(=O)c3c(nc(N4CCN(C)CC4)n3C)n(C)c2=O)cc1 | i
CCC(C)COC(=O)C(C#N)c1nc2ccccc2nc1N1CCN(C)CC1 (centres undefined) | i
COc1ccccc1C(O)Cn1cc(C(=O)N2CCN(c3ccccc3OC)CC2)nn1 (centres undefined) | i
COc1cccc2sc(N(C)CC(=O)Nc3cccc(C(C)=O)c3)nc12 | i
Cc1ccc(N2CC(C(=O)N3CCC(Oc4cnccn4)CC3)CC2=O)cc1C (centres undefined) | i
COc1ccc(-c2csc(-c3nnn(-c4ccc(Br)cc4F)c3N)n2)cc1 | i
O=C(CCc1c(F)cccc1Cl)NC1CCN(c2nccs2)CC1 | i
Cc1ccc(-c2ccc3nnc(CCC(=O)N4CCN(C(=O)c5ccco5)CC4)n3n2)cc1C | i
O=C(c1cc(-c2ccc(F)c(F)c2)on1)N1CCC(Cn2cccn2)CC1 | i
CC(C)c1ccc(OCC(O)CSc2ccccn2)cc1 (centres undefined) | i
Cc1ccc(Cl)cc1-n1ncc2c(=O)n(Cc3nc(-c4ccccc4)no3)cnc21 | i
CNC(=O)CCc1nc2ccccc2n(CC(=O)Nc2ccc(C(=O)OC)cc2)c1=O | i
O=C(Nc1cccc(N2CCCC2=O)c1)c1ccc(S(=O)(=O)N2CCOCC2)cc1 | i
CSc1cccc(NC(=O)Cn2nc3ccc(-c4ccccc4)nn3c2=O)c1 | i
CC(C)CCn1c(=O)c2ccc(C(=O)NC3CCCC3)cc2n2c(=O)n(CC(N)=O)nc12 | i
CCCCOc1ccc(NC(=O)N2CCC3(CC2)OCCCO3)cc1 | i
Cc1cc(C)n(-c2ncc(NC(=O)C3CCCO3)cn2)n1 (centres undefined) | i
COC(=O)c1c(S(=O)(=O)N2CCN(c3cccc(Cl)c3)CC2)n[nH]c1C | +
Cn1c(=O)c(C(=O)N2CCN(c3ccccc3Cl)CC2)cc2cccnc21 | i
O=S(=O)(O)c1ccc(-c2ccc(Cl)cc2)cc1 | i

(listing goes on)
canonical_smiles | GIRK2 activ
COc1ccc(Cl)cc1C(=O)N1CCN(c2ccc3nncn3n2)CC1 | i
O=C(NC(C(=O)N1CCN(C(=O)c2ccc(F)cc2)CC1)S(=O)(=O)c1ccccc1)c1ccco1 (centres undefined) | i
Cn1nc(-c2ccc(F)cc2)cc1C(=O)NCc1cc(-c2ccncc2)n(C)n1 | i
O=C(NCc1nc(-c2ccccc2)no1)c1ccc(OCc2nc(C3CC3)cs2)cc1 | i
O=C(Cn1nc2c(N3CCN(c4ccccc4)CC3)nccn2c1=O)Nc1ccc2c(c1)OCO2 | i
O=C1CCc2cc(S(=O)(=O)NC3CCCCCC3)cc3c2N1CCC3 | i
CCn1cc(C(=O)NCc2ccc(F)cc2F)c(S(=O)(=O)N2CCC(C)CC2)n1 | i
O=C(Cn1cnc2ccccc21)N1CCN(Cc2nc3ccccc3[nH]2)CC1 | i
COC(=O)N1CCN(CCNC(=O)/C=C/c2ccc3c(c2)OCO3)CC1 | i
COc1ccc(OC)c(S(=O)(=O)N2CCCC(c3nnc(CC(C)(C)C)o3)C2)c1 (centres undefined) | i
CS(=O)(=O)Nc1cccc(NC(=O)c2csc(-c3cnccn3)n2)c1 | i
Cc1ccc(NC(=O)Cn2nc3c(Sc4ccccc4)nccn3c2=O)c(Br)c1 | i
O=C(NC1CCCCCC1)C1CCN(c2ncccc2S(=O)(=O)N2CCOCC2)CC1 | i
O=C(Nc1ccc2c(c1)OCCO2)N1CCN(c2cc(Nc3ccccn3)ncn2)CC1 | i
O=C(NCC#CCOc1ccc2c(c1)OCO2)c1ccc(=O)[nH]n1 | i
COc1ccc(NC(=O)CCCn2nnc3ccccc3c2=O)cc1 | i
Cc1cc(C(=O)N2CCC(Cn3cccn3)CC2)no1 | i
COc1ccc(NC(=O)N2CCC(Oc3nc4c(Cl)cccc4s3)CC2)c(OC)c1 | i
CC(C)(C)c1ccc(-c2nc(N)ns2)cc1 | i
COc1ccccc1CCNC(=O)c1ccc(Cn2c(C)nc3ccccc32)o1 | i
CCN1CCN(S(=O)(=O)c2ccc(-c3csc(C)n3)s2)CC1 | i
CC(C)=CC(=O)OC(C)(C)C1Cc2cc3ccc(=O)oc3cc2O1 (centres undefined) | i
CCCCC[C@H](O)/C=C/[C@H]1[C@H](O)CC(=O)[C@@H]1C/C=C\CCCC(=O)OC | i
CSc1ccccc1CN1CCC(CNC(=O)c2ccccc2C(F)(F)F)CC1 | i
CS(=O)(=O)N1CCC(C(=O)N2CCN(C3=NN=C(c4ccccc4)CS3)CC2)CC1 | i
NS(=O)(=O)c1ccc(CNC(=O)CSc2nnc(CCc3nc4ccccc4[nH]3)o2)cc1 | i
CCC(CC)COC(=O)C(C#N)c1nc2ccccc2nc1N1CCN(C)CC1 (centres undefined) | i
COc1ccc(-c2nc(SCC(=O)NCC3CCCO3)c(-c3ccc(C)cc3)[nH]2)cc1OC (centres undefined) | i
O=c1oc2ccc(Cl)cc2cc1S(=O)(=O)N1CCCCCC1 | i
O=C(c1ccc(S(=O)(=O)N2CCc3ccccc3C2)cc1)N1CCCCC1 | i
O=C(NCC(=O)N1CCN(c2cc(-n3cccc3)ncn2)CC1)c1ccccc1 | i
COc1cc(/C=C/c2ccncc2)ccc1OC(=O)c1ccccc1OC | i
N#Cc1ccc(OC2CCN(C(=O)CN3C(=O)CCC3=O)CC2)nc1 | i
C#CCCNC(=O)NCCc1ccccc1 | i
CCC(C)NS(=O)(=O)c1ccc(NC(=O)c2cc(-c3ccncc3)nc3ccccc23)cc1 (centres undefined) | i
CCN(CC)C(=O)Oc1ccc2c(=O)c(Oc3ccc(OC)cc3)c(C)oc2c1 | i
CN1CCN(c2cc(NC(=O)COc3ccccc3F)ncn2)CC1 | i
O=C(Cc1ccc([N+](=O)[O-])cc1)Oc1cccc(Br)c1 | i
COc1ccc(-c2cc3c(N4CCN(c5ccccc5OC)CC4)nccn3n2)cc1 | i
CCCCCn1c(=S)[nH]c2cc(C(=O)Nc3ccccc3OC)ccc2c1=O | i
O=C(Nc1nc2c(s1)CN(S(=O)(=O)C1CC1)CC2)c1ccccn1 | i
Cc1cc(-c2nnc(NC(=O)Cn3c(=O)oc4ccccc43)o2)c(C)o1 | i
O=C(NCCC(O)C1CC1)C(=O)Nc1ccc(OC(F)(F)F)cc1 (centres undefined) | i
O=S(=O)(c1ccc(F)c(Cl)c1)N1CCN(S(=O)(=O)C2CC2)CC1 | i
O=C(CSc1nccn1-c1ccc(C(=O)NCc2ccccc2)cc1)NCc1cccs1 | i
O=C(NCc1ccc(F)cc1)N1CCC(CSCc2ccco2)CC1 | i
CCCCC/C=C\C/C=C\C/C=C\C/C=C\CCCC(=O)SCC(O)CO (centres undefined) | i
COc1cc(OC)cc(C(=O)NCCOc2ccc(-c3ccc(F)cc3)nn2)c1 | i
O=C1COc2ccc(Br)cc2CN1c1cc(F)ccc1Cl | i
Cc1ccccc1N1CC(C)Cn2c1nc1c2c(=O)n(CC(=O)O)c(=O)n1C (centres undefined) | i
COC(=O)c1ccccc1NC(=O)CSc1nc2c(-c3ccccc3)c[nH]c2c(=O)n1C1CC1 | i
COc1ccc(-c2csc(-c3nnn(-c4ccc(F)cc4F)c3N)n2)cc1 | i
CCOc1cc(C)c(Cl)cc1S(=O)(=O)NCC1CCCO1 (centres undefined) | i
CC(=O)c1ccc(NC(=O)c2n[nH]n3c2nc(=O)c2cc(Cl)ccc23)cc1 | i
Cc1nc(SCc2ccc(F)cc2)[nH]c(=O)c1CC(=O)Nc1ccc(C(N)=O)cc1 | i
Cc1cc(OCC(=O)Nc2cccc(C)c2C)nc(N2CCc3ccccc3C2)n1 | i
CC(C)C[C@](CC(=O)O)(O[C@@H]1O[C@H](CO)[C@@H](O)[C@H](O)[C@H]1O)C(=O)OCc1ccc(O[C@@H]2O[C@H](CO)[C@@H](O)[C@H](O)[C@H]2O)cc1 | i
Cc1cc2oc3c(c(=O)c2cc1Cl)C(c1ccc([N+](=O)[O-])cc1)N(CCN(C)C)C3=O (centres undefined) | i
CC(=O)c1cccc(NC(=O)c2ccc(CNS(=O)(=O)c3ccc(C(C)(C)C)cc3)cc2)c1 | i
COc1ccc(C(=O)Oc2ccc(/C=C/c3ccncc3)cc2)cc1 | i

Following part
canonical_smiles | GIRK2 activ
CC1CC(C)CN(c2ccnc(SCC(=O)NC(C)(C)C)n2)C1 (centres undefined) | i
CCCCC[C@@](C)(O)/C=C/[C@H]1C(=O)C[C@H](O)[C@@H]1C/C=C\CCCC(=O)O | i
O=C(N1CCCCCC1)C1(c2cccs2)CCCC1 | i
COC(=O)C1=C(C)N(Cc2ccccc2)C(=O)NC1c1ccccc1 (centres undefined) | i
COCCn1c(N2CCN(c3ccccc3)CC2)nc2c1c(=O)[nH]c(=O)n2C | i
CN(Cc1ccccc1)c1oc(-c2ccc(S(=O)(=O)N(C)C)cc2)nc1C#N | i
Cc1ccsc1/C=C1\Oc2cc(OC(=O)c3ccco3)ccc2C1=O | i
COc1ccc(/C=C/C(=O)c2cc(F)ccc2O)c(OC)c1 | i

Sorted by length of the SMILES (rising): three of the compounds above.
canonical_smiles | GIRK2 activ
CSc1ccccc1CN1CCC(CNC(=O)c2ccccc2C(F)(F)F)CC1 | i
O=S(=O)(c1ccc(F)c(Cl)c1)N1CCN(S(=O)(=O)C2CC2)CC1 | i
CNC(=O)CCc1nc2ccccc2n(CC(=O)Nc2ccc(C(=O)OC)cc2)c1=O | i
